VDR inhibitor: Inhibitors of the vitamin D receptor (VDR): qHTS; Vitamin D3 receptor (Homo sapiens), P11473; VDR-SRC2-3 peptide fluorescence polarization, 2 h; Potency, µM, inactives show max response, negative = inhibition, hits mostly inhibitors; hit rate 0.93% among 400,000; active means well fitted inhibition curve with a large enough effect; inconclusive means small, poorly fitted or top-dose-only effect, or another doubt; inactive means no such curve, though single readings can be large or run the other way; further: series mostly up to about 120 µM
Target sequence (P11473 whole entry, looked up): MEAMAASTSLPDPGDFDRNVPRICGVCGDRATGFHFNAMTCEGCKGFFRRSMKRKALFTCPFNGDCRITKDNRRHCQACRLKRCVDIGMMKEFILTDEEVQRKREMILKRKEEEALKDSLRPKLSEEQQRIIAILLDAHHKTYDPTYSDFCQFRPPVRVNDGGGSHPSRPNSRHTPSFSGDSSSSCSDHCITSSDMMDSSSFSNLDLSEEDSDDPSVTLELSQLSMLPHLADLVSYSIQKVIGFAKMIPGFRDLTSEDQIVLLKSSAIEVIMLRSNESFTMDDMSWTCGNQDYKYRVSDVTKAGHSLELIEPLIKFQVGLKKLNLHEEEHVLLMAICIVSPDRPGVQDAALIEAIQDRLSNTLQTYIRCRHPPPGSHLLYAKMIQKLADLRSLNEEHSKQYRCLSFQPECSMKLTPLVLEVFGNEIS
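Two reagent solutions held at 4 deg C in the dark were dispensed, compounds pinned at 23 nl, and the mixture incubated 2 h at room temperature. Read-out: fluorescence polarization of VDR–SRC2-3 peptide binding.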
The depositor's hits bear a star; ? = inconclusive; & = joins results of further samples. On the % scale 0 is the no-effect control and ±100 the full control effect; potency means the concentration at half of the fitted maximal effect. Some of the compounds tested. The share of hits here may be higher or lower than overall.

VDR inhibitor	molecule
10%	CCOc1ccc(NC(=O)c2cc3c(-c4ccccc4F)nn(C)c3s2)cc1
-9%	CCc1ccc(N(CC)c2ncnc3nc[nH]c23)cc1
11%	COc1ccc(CCc2ccc3cc(OC)ccc3n2)cc1
-19%	CC1=C(C(=O)OCc2ccccc2)C(c2ccc3c(c2)OCO3)NC(=O)N1CCCC(=O)O (centres undefined)
-21%	Fc1cccc(NC(=S)NCC(c2cccnc2)N2CCOCC2)c1 (centres undefined)
-7%	CCN1CC(CNCc2cn(-c3ccc(OC)cc3)nc2-c2ccccc2Cl)CC1=O (centres undefined)
13%	CN(C)c1nc(SCc2ccc(Cl)cc2)nc2c1CCCC2
-15%	COc1cccc(/C=N/Nc2c(Cl)cncc2Cl)c1O
-11%	Cc1ccc(NC(=O)CCc2nc3ccccc3c(=O)[nH]2)cc1S(=O)(=O)N1CCOCC1
-17%	CC(=O)c1ccc(N2CCN(C(=O)c3ccc4ccccc4n3)CC2)cc1
-10%	c1ccc(Nc2nc(-c3ccncc3)cs2)cc1
-10%&12%	Cc1cccc(-n2c3nc(=O)[nH]c(=O)c-3cc3c(C)nn(-c4ccccc4)c32)c1C
6%	Cc1ccc2[nH]cc(C(c3ccccc3)c3cccs3)c2c1 (centres undefined)
6%	O=S(=O)(N=S(N1CCCCC1)N1CCCCC1)c1ccccc1
0%	CC(=O)C(C(C)=O)C(c1ccccc1)c1nc2ccccc2[nH]c1=O (centres undefined)
-4%	C(=N/N1CCN(c2ccccc2)CC1)/c1cccs1
-1%	CCn1c(C)nc2cc(C(=O)NNC(=O)[C@@H](NC(=O)c3cc(OC)cc(OC)c3)C(C)C)ccc21
0%	CC(=O)NC(C)c1nc2ccccc2n1CC(=O)NC(C)CCc1ccccc1 (centres undefined)
21%	CCOc1cc(C(=O)CCC(=O)OCC(=O)NC(=O)NCC(C)C)ccc1O
9%	CC(=O)N1CCC2(CC1)NC(=O)N(c1ccccc1)N2
-8%	CCn1c(=O)n(-c2ccc3c(c2)OCO3)c2nc(-c3cc(OC)ccc3OC)nc(C(N)=O)c21
6%	O=[N+]([O-])c1cc(/C=N/Nc2nc(N3CCOCC3)nc(N3CCOCC3)n2)ccc1Cl
8%	CCCCOc1ccc(C(=O)N2CCCCC2CCN2CCOCC2)cc1 (centres undefined)
-23%	S=C(NCc1ccccc1)Nc1cccc2cnccc12
7%	Cc1ccccc1OCC(O)CN (centres undefined)

Among those listed so far, these have a thiophene ring, fused or not.
VDR inhibitor	molecule
10%	CCOc1ccc(NC(=O)c2cc3c(-c4ccccc4F)nn(C)c3s2)cc1
6%	Cc1ccc2[nH]cc(C(c3ccccc3)c3cccs3)c2c1 (centres undefined)
-4%	C(=N/N1CCN(c2ccccc2)CC1)/c1cccs1

Continued:
VDR inhibitor	molecule
-18%	CCCS(=O)(=O)N1CCN(C2Cc3ccccc3C2)CC1
3%	Cc1ccc(/C=N\NC(=O)c2cncc(Br)c2)o1
-17%	CN(CCOc1ccccc1)CCOc1ccccc1
5%	CCCOC(=O)Cn1c(=O)c2cc3c(=O)n(CC(=O)OCCC)c(=O)c3cc2c1=O
-24%	CCOC(=O)C1CCCN(C(=O)c2cn(C)c3ccc(S(=O)(=O)N4CCCC4)cc3c2=O)C1 (centres undefined)
4%	S=c1nc[nH]c2c1sc1nc(N3CCOCC3)c3c(c12)CCCC3
13%	O=C(NNC1=Nc2cccc3cccc1c23)c1ccccc1Br
9%	CCOc1ccc(C(=O)NCC(c2cccs2)N(C)C)cc1 (centres undefined)
-14%	Cc1cn(-c2cc(C(=O)Nc3ccc(C)c(NC(=O)N4CCNC4=O)c3)cc(C(F)(F)F)c2)cn1
6%	CCOC(=O)c1sc(NC(=O)CSC(=S)N2CCOCC2)nc1C
-18%	O=C(NCCCN1CCCC1)c1ccc(CS(=O)(=O)c2c(Cl)cccc2Cl)o1
-11%	Cc1cc(-c2ccccc2)c2c3c(cn2n1)c(=O)n(C)c(=O)n3C
-4%	CC(=O)c1c(C)[nH]c(=S)c(C#N)c1-c1ccc(F)cc1
13%	Cc1cc(OC(=O)c2ccc(OC(C)C)cc2)c([N+](=O)[O-])c(=O)[nH]1
1%	CC1CCCN(CCCNC(=O)c2ccc3c(c2)N(Cc2cccc(Cl)c2)C(=O)c2ccccc2S3(=O)=O)C1 (centres undefined)
-10%	C/C(=N\NC(=O)c1ccco1)c1ccc(C(=O)O)s1
-9%	COc1cc(C2C(C#N)=C(C)NC3=C2C(=O)CC(C)(C)C3)ccc1O (centres undefined)
6%	COc1ccc(NC(=O)CCC(=O)N/N=C/c2ccc([N+](=O)[O-])s2)cc1
-3%	COc1cccc(C(=O)Nc2nnc(C3CCCO3)s2)c1 (centres undefined)
-3%	CC(=O)Nc1ccc(NC(=O)C(Cc2ccccc2)NC(=O)C2CCCCC2)cc1 (centres undefined)
15%	Cc1cc(NC(=O)CN2C(=O)/C(=C/c3ccccc3F)SC2=S)no1
-2%	Cc1noc(NS(=O)(=O)c2ccc(NC(=O)c3cnc4n(c3=O)CCS4)cc2)c1C
5%	CCCC(=O)N(c1ccc(F)cc1)C1C=CS(=O)(=O)C1 (centres undefined)
9%	Cc1ccccc1-c1nn(-c2ccc(F)cc2F)cc1CNCCCO
-6%	CCOc1ccc(Oc2ccc(S(=O)(=O)N3CCOCC3)cc2N)cc1

Arranged by molecular weight (rising): some entries from above
VDR inhibitor	molecule
-10%	C/C(=N\NC(=O)c1ccco1)c1ccc(C(=O)O)s1
-3%	COc1cccc(C(=O)Nc2nnc(C3CCCO3)s2)c1 (centres undefined)
-11%	Cc1cc(-c2ccccc2)c2c3c(cn2n1)c(=O)n(C)c(=O)n3C

Reprinted at random: 3 entries already listed, in no set order.
VDR inhibitor	molecule
5%	CCCC(=O)N(c1ccc(F)cc1)C1C=CS(=O)(=O)C1 (centres undefined)
6%	COc1ccc(NC(=O)CCC(=O)N/N=C/c2ccc([N+](=O)[O-])s2)cc1
4%	S=c1nc[nH]c2c1sc1nc(N3CCOCC3)c3c(c12)CCCC3

The results go on:
VDR inhibitor	molecule
-5%	O=C(NCCC1=CCCCC1)c1cnsn1
9%	Cc1ccc(S(=O)(=O)Nc2ccc(-c3csc(-c4ccccc4)n3)cc2)cc1
17%	C#CCSc1nnnn1-c1ccc(Br)c(C)c1
9%	COc1cccc(/C=C/C(=O)OCCN2C(=O)c3ccccc3C2=O)c1
?	CCOC(=O)CN(Cc1sccc1C)C(=O)Nc1ccc(OCC)cc1
10%	COc1ccc(S(=O)(=O)N2CCOCC2)cc1NC(=O)C1CC1
-11%	CCOC(=O)c1c(C)[nH]c(C(=O)OC/C(O)=C(\C#N)c2nc3ccccc3[nH]2)c1C
-20%	CCOc1ccccc1NC(=O)Cn1nnc(C(=O)NCc2ccc(F)cc2)c1N
-7%	CCc1ccc(C(=O)COC(=O)c2cncc(Br)c2)cc1
17%	CC(C)CN(C(=O)COC(=O)CCc1c[nH]c2ccccc12)c1c(N)n(Cc2ccccc2)c(=O)[nH]c1=O
-5%	Cc1ccc(S(=O)(=O)NCCC(=O)Nc2nnc(C)s2)cc1
-6%	COc1ccc(CCN2C(=NC(=O)C(C)C)SC3CS(=O)(=O)CC32)cc1OC (centres undefined)
-9%	O=C(O)c1ccccc1C(=O)NNc1ccc(F)cc1F
-8%	O=C(Nc1ccc(-c2nc3ccccc3[nH]2)cc1)C1CCCO1 (centres undefined)
22%	COCCn1c(SCC(=O)Nc2ccc(NC(C)=O)cc2)nc2c([nH]c3ccccc32)c1=O
11%	CCCNC(=O)COCc1cc(-c2ccc(F)cc2)on1
7%	CCOc1cc(C2C(C(=O)OC)=C(C)NC3=C2C(=O)c2ccccc23)ccc1O (centres undefined)
-15%	CCCn1c(=N)c(C(=O)NC2CCCCC2)cc2c(=O)n3cc(C)ccc3nc21
3%	C=CC[C@H](CC(=O)NCCO)C(=O)N[C@H](COC(=O)[C@H](CC=C)CC(=O)OC(C)(C)C)Cc1c[nH]c2ccccc12
-1%	O=C(c1cccc(F)c1)N1CCC2(CC1)CN(c1ccc(-c3ccccc3)cc1)C2
-20%	Cc1ccccc1NC(=O)CCS(=O)(=O)c1cc(Br)cc2c1N(C(=O)C1CC1)CC2
-1%	CCCCn1c(N)c(N(CCOC)C(=O)c2ccc(-c3ccc(C(C)=O)cc3)o2)c(=O)[nH]c1=O
10%	CCC(C)NC(=O)c1ccc2nc(Cc3ccccc3)oc2c1 (centres undefined)
-20%	N=C(N)SCCc1cccc(CCSC(=N)N)c1
-11%	O=C1SCCC1NC(=O)C(c1ccccc1)c1ccccc1 (centres undefined)

Four entries from above, as labelled records.
> CCCn1c(=N)c(C(=O)NC2CCCCC2)cc2c(=O)n3cc(C)ccc3nc21
  VDR inhibitor = -15%
> C=CC[C@H](CC(=O)NCCO)C(=O)N[C@H](COC(=O)[C@H](CC=C)CC(=O)OC(C)(C)C)Cc1c[nH]c2ccccc12
  VDR inhibitor = 3%
> O=C(c1cccc(F)c1)N1CCC2(CC1)CN(c1ccc(-c3ccccc3)cc1)C2
  VDR inhibitor = -1%
> Cc1ccccc1NC(=O)CCS(=O)(=O)c1cc(Br)cc2c1N(C(=O)C1CC1)CC2
  VDR inhibitor = -20%

The list continues.
VDR inhibitor	molecule
-3%	COC(=O)c1cc2sc(Cl)cc2n1CC(=O)Nc1cccc(SC)c1
-2%	Cc1ccc(C)c(C(=O)c2ccccc2NC(=O)c2ccccn2)c1
19%	CCc1nnc(NC(=O)c2cc(C)nc3ccccc23)s1
?	CN(C)S(=O)(=O)c1cccc(NC(=S)N/N=C/C2CC=CCC2)c1 (centres undefined)
-8%	O=c1[nH]c(CN2CCN(S(=O)(=O)c3ccccc3C(F)(F)F)CC2)nc2sc3c(c12)CCCC3
3%	CC1CCN(c2c(NCc3ccc(C(=O)N4CCN(C5CCCCC5)CC4)cc3)c(=O)c2=O)CC1
?	Cc1ccc(NC(=O)CCCCCN2C(=O)c3ccccc3C2=O)nc1
-4%	CCCn1c(/N=C/c2ccccc2O)nc2ccccc21
4%	O=C(CN1C(=O)c2ccccc2S1(=O)=O)c1ccccc1
-4%	NCCCCCc1nnc(SCC(N)=O)o1
7%	Cc1ccccc1-c1nn2c(=O)cc(CN3CCN(C(=O)c4ccc(C(C)(C)C)cc4)CC3)nc2s1
-3%	Cn1c(SCC(=O)N2CCCc3ccccc32)nc2ccccc2c1=O
4%	COc1ccc(CN(Cc2ccc(C(=O)O)cc2)C(=S)Nc2ccccc2C)cc1OC
-1%	C=C1CCN([C@H](C(=O)OCc2ccc(C)cc2)C(C)C)S(=O)(=O)c2ccccc21
3%	O=C(Nc1ccc(Cl)cc1)C1CC=CCC1C(=O)OCC(F)(F)C(F)F (centres undefined)
-9%	CCCCN(C(=O)C1CSC2(C)CCC(=O)N12)c1c(N)n(Cc2ccccc2)c(=O)[nH]c1=O (centres undefined)
-5%	O=C(NCc1ccc2c(c1)OCO2)C12CN(Cc3ccccc3)CC1C(c1cccc([N+](=O)[O-])c1)=NO2 (centres undefined)
-10%	Cc1cc(C)nc(NC(=S)Nc2ccc(F)cc2F)c1
21%	Cc1ccc2c(CN3CCC(C(N)=O)CC3)cc(=O)oc2c1C
-1%	O=C(c1ccco1)N1CCN(C(=O)c2ccc(Cn3cc(Br)cn3)o2)CC1
-6%	N=c1c2c(n(Cc3ccc(Br)cc3)c3c1CCC3)CCCC2
?	O=S(=O)(Nc1ccc(Cl)cc1)c1ccc(N2CCOCC2)c(NC(=S)NCCN2CCOCC2)c1
4%	CC1(C)CC(=O)C/C(=N\NC(=O)C2CC23CCC3)C1 (centres undefined)
18%	Cc1ccc(-n2c(C)cc(/C([O-])=C(/C(=S)Nc3ccc(F)c(Cl)c3)[n+]3ccccc3)c2C)cc1
0%	Cc1ccc(S(=O)(=O)N2CCN(Cc3nc4ccc(C)cc4o3)CC2)cc1
?	O=C(NCCN1C(=O)S/C(=C\c2ccc(OC(F)F)cc2)C1=O)c1cnccn1
-7%	COc1cccc(-c2csc(N3CCN(C(=O)Nc4ccccc4OC)CC3)n2)c1
1%	CCOc1ccc(CC(=O)Nc2ccc(S(=O)(=O)Nc3cc(C)on3)cc2)cc1OCC
-1%	Cc1ccc(CNC(=O)CSc2ccc(-c3ccco3)nn2)cc1
-10%	Cc1ccc(-c2cn(-c3cccc(Cl)c3)c(S(=O)(=O)CC(=O)Nc3cccc(C)c3)n2)cc1
11%	Cc1cccc(C(C(C(=O)c2ccccc2)N2CCOCC2)N2CCOCC2)c1 (centres undefined)
16%	Cc1ccc(C)c(Cn2c(=O)cc(C)c3c(C)nn(C)c32)c1
17%	Cc1cccc2sc(N(Cc3cccnc3)C(=O)c3ccco3)nc12
?	O=C1C2ON(c3ccc(Cl)cc3)C(c3ccco3)C2C(=O)N1c1ccccc1 (centres undefined)
7%	COc1ccc(CN(C(=O)c2ccc(-c3ccccc3)[nH]2)C(C(=O)NCC2CCCO2)c2ccc(C)o2)cc1 (centres undefined)
-9%	COc1ccc(OCc2cc(C(=O)NCCCc3ccccc3)no2)c(Cl)c1
-4%	C#CC[N+](C)(C)CC#Cc1ccc(Cl)cc1
2%	CC(=O)n1nc(-c2ccccc2)nc1NCc1ccc(F)cc1
-5%	CCOc1ccccc1NC(=O)C1CCCN(S(=O)(=O)c2ccc3c(c2)C(C)(C)C(=O)N3C)C1 (centres undefined)
-7%	O=C(C1CCCO1)N1CCN(C(=S)Nc2ccc(Cl)cc2)CC1 (centres undefined)
14%	Cc1nc2nc(SCc3ccc(F)cc3Cl)nn2c(C)c1Cc1ccccc1
-4%	CCOP(=O)(Nc1ccc2oc(=O)c3ccccc3c2c1)OCC
2%	O=C(Nc1cccc(C(F)(F)F)c1)Nc1cccs1
3%	COc1ccc2c(c1)C(C)=CC(C)(C)N2C(=O)CN1C(=O)CCC1=O
2%	Cc1cc(CSc2ccccc2)ccc1NC(=O)COc1ccccc1
-3%	CC1CC(C)CN(C(=O)Cn2c(SCC(=O)N3CCc4ccccc4C3)nc3ccccc32)C1 (centres undefined)

Bioassay records as filed in PubChem.
